# From PubChem
# NS1 inh – blocks influenza NS1 protein function. Potency, µM (highest dose often 46.1 µM), inactives show top-dose activity, positive = more growth. hit rate 0.4% among 270,000. S. cerevisiae slowed by influenza A NS1, growth recovery by OD600; also: actives are rising curves; nearly all actives have a fitted effect of over 50% in size
#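 In this qHTS, NS1 from influenza A is expressed in budding yeast, where it slows growth. Cells are switched from glucose to 2% galactose medium (pH 6.0, -URA), treated with compound, and growth recovery is read at OD600.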
# Cruzain Triton – blocks cruzain activity in presence of Triton detergent. purified cruzain, Z-FR-AMC fluorescence, 0.01% Triton. Potency, µM, without a hit: max response, negative = inhibition, most hits filed as inhibitors. hit rate 0.43% among 200,000. AID 1478. P25779; active = well fitted curve in the direction sought with a large enough effect; inconclusive = small, poorly fitted or top-dose-only effect, or another doubt; inactive = no such curve, though single readings can be large; an effect the other way counts as inactive or inconclusive;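 also: plate controls were neutral wells for no effect and buffer without enzyme for full effect; nearly all actives have a fitted effect of over 40% in size; top concentration of the series not given in the record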
# Target sequence (P25779 123-467 limits assumed): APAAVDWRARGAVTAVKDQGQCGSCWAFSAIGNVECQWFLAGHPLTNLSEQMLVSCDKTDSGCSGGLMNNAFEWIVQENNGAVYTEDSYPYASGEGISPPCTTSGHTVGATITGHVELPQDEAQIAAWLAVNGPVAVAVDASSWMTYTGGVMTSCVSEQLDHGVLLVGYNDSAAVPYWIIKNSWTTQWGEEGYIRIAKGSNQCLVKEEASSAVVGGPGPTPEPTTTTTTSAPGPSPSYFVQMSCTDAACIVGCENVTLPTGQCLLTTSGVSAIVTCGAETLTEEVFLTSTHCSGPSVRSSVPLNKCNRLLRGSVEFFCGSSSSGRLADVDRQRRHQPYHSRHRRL
#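 Steps: dispense cruzain (1.5 nM final) in acetate buffer pH 5.5 with DTT and 0.01% Triton X-100; pin-transfer compounds; incubate 15 min RT; add Z-FR-AMC (2 uM final); read fluorescence every 30 s, using the 60 s intensity change.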
# Marburg entry inh – Marburg virus entry inhibition; Marburg virus pseudotyped entry inhibition, cell reporter; control for the full effect not named in the record; about a third of the inactives were read at about 46 µM; Potency, µM (series often up to 37.8 µM), for inactives: at the highest dose activity change, negative = inhibition, most hits filed as inhibitors; hit rate 1.8% among 300,000; active = well fitted inhibition curve with a large enough effect; inconclusive = small, poorly fitted or top-dose-only effect, or effect the other way; inactive = flat fitted curve, though single readings scatter; tested in HEK293 cells; about a fifth of its hits are not listed in these tables; also: % is scaled to controls: 0 for no effect and ±100 for the full control effect; luciferase read-out
# 2A StopGo – FMDV 2A StopGo reporter, luciferase signal; human cells with a luciferase reporter of 2A StopGo recoding; control for the full effect not named in the record; Potency, µM (titrated, usually from 57.9 µM), inactives show top-dose signal change, negative = less light; hit rate 1.2% among 410,000; active = well fitted falling curve with a large enough effect; inconclusive = small, poorly fitted or top-dose-only effect; inactive = no such curve, though single readings can be large or run the other way; tested in HEK293T cells; also: % is scaled to controls: 0 for no effect and ±100 for the full control effect; nearly all actives have a fitted effect of over 45% in size; luciferase light after 4 h
# SARS PLP yeast – inhibitors of SARS-CoV papain-like protease in yeast. Potency, µM (series often up to 32.9 µM), inactives show top-dose activity, positive = growth rescue. S. cerevisiae expressing SARS-CoV PLpro, growth rescue; control for the full effect not named in the record. hit rate 0.19% among 330,000; also: 0% is about no effect; nearly all actives have a fitted effect of over 55% in size; growth read by luminescence after 48 h
# Cruzain noTriton – cruzain (T. cruzi) inhibition without detergent; P25779; purified cruzain, Z-FR-AMC fluorescence, no detergent; Potency, µM, for inactives: max response, negative = inhibition, hits mostly inhibitors; hit rate 2.3% among 200,000; active = well fitted curve in the direction sought with a large enough effect; inconclusive = small, poorly fitted or top-dose-only effect, or another doubt; inactive = no such curve, though single readings can be large; an effect the other way counts as inactive or inconclusive;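 also: plate controls were enzyme without inhibitor for no effect and buffer without enzyme for full effect; nearly all actives have a fitted effect of over 40% in size; top concentration of the series not given in the record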
#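 Detergent-free condition (0.00005% Triton X-100) in acetate buffer pH 5.5 with DTT. 1.5 nM enzyme and compound were pre-mixed 15 min, then 2 uM Z-FR-AMC substrate added; reaction progress from fluorescence change between first and third reads (60 s).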
# Lassa entry inh – blocks Lassa virus binding to or entry into cells; Lassa virus pseudotype entry inhibition, cell reporter; control for the full effect not named in the record; Potency, µM (doses to about 37.9 µM), inactives show at the top dose activity change, negative = inhibition, most hits filed as inhibitors; hit rate 1.2% among 300,000; AID 540256; active means well fitted inhibition curve with a large enough effect; inconclusive means small, poorly fitted or top-dose-only effect, or effect the other way; inactive means flat fitted curve, though single readings scatter; tested in HEK293 cells; also: % is scaled to controls: 0 for no effect and ±100 for the full control effect; nearly all actives have a fitted effect of over 50% in size; luciferase read-out
# RE007 growth inh – less growth of the S. pombe RE007 Vpr strain. S. pombe RE007 Vpr strain, BacTiter-Glo ATP luminescence, 24 h; control for the full effect not named in the record. Potency, µM (top dose mostly 92.2 µM), inactives show at the highest dose activity change, negative = less growth. hit rate 0.21% among 360,000. AID 651644; active = well fitted falling curve with a large enough effect; inconclusive = small, poorly fitted or top-dose-only effect; inactive = no such curve, though single readings can be large or run the other way;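 also: % is scaled to controls: 0 for no effect and ±100 for the full control effect; nearly all actives have a fitted effect of over 50% in size; the assay follows cell death caused by Vpr and the record does not say whether a fall means rescue or toxicity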
#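 Fission yeast strain RE007, carrying one chromosomally integrated HIV-1 vpr copy, was seeded at OD 0.01 in PMG+AL medium with 23 nL pinned compound. After 24 h at 30 °C and 99% humidity, viability was read by BacTiter-Glo luminescence.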
# An asterisk follows results filed as active; ? = inconclusive; / = not tested or not shown; & = joins results of further samples; [ ] = another dose, or the depositor's remark. Unless noted, calls follow the shape of the dose curve; as a rule, active means well fitted rising curve with a large enough effect; inconclusive means small, poorly fitted or top-dose-only effect; inactive means no such curve, though single readings can be large or run the other way. Potency is read from the fitted curve at half-maximal effect. Random draw from the library; overall some 4.7% were active at least once.
SMILES,NS1 inh,Cruzain Triton,Marburg entry inh,2A StopGo,SARS PLP yeast,Cruzain noTriton,Lassa entry inh,RE007 growth inh
CN(C)CC1CCCCC1=O (centres undefined),-1%,/,5%[46.1 µM],-2%,1%,/,0%,4%
Cc1ccc(NC(=O)CN(C)C(C)C(=O)Nc2ccc(S(=O)(=O)N3CCCC3)cc2)cc1 (centres undefined),/,/,-4%,-2%,0%,/,5%,-28%
COc1ccc(CCNC(=O)c2c(-c3ccccc3Cl)noc2C)cc1,-12%,-1.4%,-8%,/,0%,-6%,-5%,10%
CCCN1CCN(C(=O)Cn2cccc2C(=O)c2ccccc2)CC1,1%,-2.3%,5%,-9%,-1%,-7%,2%,20%
NC(=O)c1ccccc1NC(=O)/C=C/c1c(Cl)cccc1Cl,0%,-1.5%,?,41%[activator],1%,-1%,4%,-4%
COC(=O)C(Cc1ccc(O)cc1)NC(=O)c1ccccc1OC (centres undefined),-62%,-1.0%,13%,29%,10%,-18%,5%,-7%
Cc1ccc(-c2csc(N3CCC[C@@H]3C(=O)NCCn3c(-c4ccncc4)nc4ccccc43)n2)cc1,4%,/,/,?,2%,/,/,-25%
Cc1cccc(C)c1NC(=O)C(c1ccc([N+](=O)[O-])cc1)N(C)C(=O)c1ccccn1 (centres undefined),20%,3.3%,4%,-15%,13%,-6%,-3%,7%
CC1=C(c2ccc(C)c(C)c2)S(=O)(=O)N(Cc2ccc(C(=O)NC(C)c3ccccc3)cc2)C1=O (centres undefined),/,-4.1%,/,-21%,/,4%,1%[46.1 µM],/
CCC(Sc1nnnn1C)C(=O)Nc1ccc(C(C)=O)cc1 (centres undefined),-4%,0.5%,30%,27%,0%,0%,30%,-19%
C/C=C/c1ccc(OCCCCn2cncn2)c(OC)c1,-3%,4.9%,-7%,45%[activator],0%,12%,3%,14%
CC1=C(C)CC2(SC1)C(=O)N(c1ccccc1)N=C2N (centres undefined),/,/,?,0%,2%,/,25%,-10%
Cc1cc(C)c2nc(N3CCC(C(=O)NCCCN4CCCCC4)CC3)sc2c1,1%,-3.9%,?,?,10%,8%,?,26%
CC(=O)N1CCCc2cc(S(=O)(=O)N3CCCC(C(=O)Nc4cc(Cl)ccc4C)C3)ccc21 (centres undefined),/,-3.7%,/,?,/,?,-23%[46.1 µM],/
Cc1ccccc1Nc1oc(-c2ccccc2)nc1-c1ccccc1F,/,-2.0%,-6%&-6%[14.2 µM],/,/,-12%,?,/
O=[N+]1C2=C(CCCC2)N([O-])C12CCCC2,6%,-2.3%,0%,/,6%,-6%,17%,0%
COc1ccc(OCC(=O)Nc2cccc3ncccc23)cc1,-2%,-3.8%,-6%,?,-8%,-21%,0%,-7%
COc1cccc(NC(=O)CSC2=Nc3ccccc3C3=NC(CC(=O)NCCc4ccccc4)C(=O)N23)c1 (centres undefined),/,-3.8%,/,0%,/,?,-19%[46.1 µM],/
Cn1c(SCC(N)=O)nnc1C1CCN(S(=O)(=O)c2ccccc2C(F)(F)F)CC1,-4%,1.2%,9%,-8%,1%,7%,3%,15%
O=C(N/N=C/c1ccccn1)c1[nH]c2ccc([N+](=O)[O-])cc2c1-c1ccccc1,6%,/,?,?,-1%,/,?,-3%
Cc1nnc(NC(=O)Cn2c(=O)sc3ccccc32)s1,0%,1.2%,/,0%,2%,-16%,/,-9%
O=C(Cn1nnc(-c2ccccc2)n1)NNC(=O)c1cccc([N+](=O)[O-])c1,5%,/,-1%[46.1 µM],5%,2%,/,9%,10%
CN(C)S(=O)(=O)c1ccc2c(c1)nnn2CCNC(=O)Nc1ccc(Cl)cc1,/,-1.0%,/,-6%,/,3%,4%[46.1 µM],/
COc1c(C)cc(C(=O)C2CCCN(Cc3cccc(C)n3)C2)cc1C (centres undefined),3%,/,/,-15%,-1%,/,/,0%
Cc1nnc(N2C(=O)c3oc4ccccc4c(=O)c3C2c2ccco2)s1 (centres undefined),?,-0.4%,/,-8%,2%,-14%,/,4%

# Exported with values under each structure: ten of the compounds above
# The line under a structure holds: NS1 inh	Cruzain Triton	Marburg entry inh	2A StopGo	SARS PLP yeast	Cruzain noTriton	Lassa entry inh	RE007 growth inh
- CN(C)CC1CCCCC1=O (centres undefined)
    -1%	/	5%[46.1 µM]	-2%	1%	/	0%	4%
- Cc1ccc(NC(=O)CN(C)C(C)C(=O)Nc2ccc(S(=O)(=O)N3CCCC3)cc2)cc1 (centres undefined)
    /	/	-4%	-2%	0%	/	5%	-28%
- COc1ccc(CCNC(=O)c2c(-c3ccccc3Cl)noc2C)cc1
    -12%	-1.4%	-8%	/	0%	-6%	-5%	10%
- CCCN1CCN(C(=O)Cn2cccc2C(=O)c2ccccc2)CC1
    1%	-2.3%	5%	-9%	-1%	-7%	2%	20%
- NC(=O)c1ccccc1NC(=O)/C=C/c1c(Cl)cccc1Cl
    0%	-1.5%	?	41%[activator]	1%	-1%	4%	-4%
- COC(=O)C(Cc1ccc(O)cc1)NC(=O)c1ccccc1OC (centres undefined)
    -62%	-1.0%	13%	29%	10%	-18%	5%	-7%
- Cc1ccc(-c2csc(N3CCC[C@@H]3C(=O)NCCn3c(-c4ccncc4)nc4ccccc43)n2)cc1
    4%	/	/	?	2%	/	/	-25%
- Cc1cccc(C)c1NC(=O)C(c1ccc([N+](=O)[O-])cc1)N(C)C(=O)c1ccccn1 (centres undefined)
    20%	3.3%	4%	-15%	13%	-6%	-3%	7%
- CC1=C(c2ccc(C)c(C)c2)S(=O)(=O)N(Cc2ccc(C(=O)NC(C)c3ccccc3)cc2)C1=O (centres undefined)
    /	-4.1%	/	-21%	/	4%	1%[46.1 µM]	/
- CCC(Sc1nnnn1C)C(=O)Nc1ccc(C(C)=O)cc1 (centres undefined)
    -4%	0.5%	30%	27%	0%	0%	30%	-19%

# (list continues)
SMILES,NS1 inh,Cruzain Triton,Marburg entry inh,2A StopGo,SARS PLP yeast,Cruzain noTriton,Lassa entry inh,RE007 growth inh
COc1ccc(CCN(C)Cc2ccncc2)cc1OC,-5%,3.1%,6%,-17%,5%,-5%,-4%,-9%
O=C(C1CC1)N1CCN=C1SCc1ccc(F)cc1,-24%,-3.2%,/,-11%,-3%,4%,/,-6%
Cc1cc(C(=O)O)ccc1-n1c(C)cc(C=C2C(=O)c3ccccc3C2=O)c1C,6%,/,-6%[46.1 µM],-19%,-1%,/,2%,-3%
Nn1c(SCc2ccccc2)nc2ccccc21,-1%,/,?,73%[activator],4%,/,/,-1%
Cc1ccc(CN(C(=O)c2ccccc2Br)C2CCS(=O)(=O)C2)o1 (centres undefined),/,-2.4%,-9%[46.1 µM],-19%,/,1%,7%[46.1 µM],/
O=C(NCCCn1ccnc1)c1ccc(N2CCCCC2)c([N+](=O)[O-])c1,/,/,-2%[46.1 µM],2%,3%,/,?,?
COc1cc(/C=C/c2cccc[n+]2C)ccc1OCC(=O)Nc1ccccc1,-4%,/,-5%[46.1 µM],-1%,-2%,/,4%[46.1 µM],-2%
O=C(CCC(=O)N1CCOc2ccccc21)Nc1ccc(F)cc1F,-12%,/,/,5%,-3%,/,/,11%
Cc1ccc2c(Cl)cc(Cl)c(OCC(=O)N(C(C)C)C(C)C)c2n1,/,/,0%[46.1 µM],?,-2%,/,-6%,-13%
Nc1nc(-c2cc(O)ccc2[N+](=O)[O-])cc(-c2ccccc2)c1[N+](=O)[O-],4%,/,-7%[46.1 µM],-24%,3%,/,-21%[46.1 µM],-2%
COc1ccc(-c2nc(CS(=O)(=O)CC(=O)NCCc3ccccc3)c(C)o2)cc1,3%,/,/,-17%,-5%,/,/,3%
Cc1ccc(C(=O)N2CC(C)CC(C)C2)cc1NC1=NC2CS(=O)(=O)CC2S1 (centres undefined),19%,/,/,-20%,-1%,/,/,9%
Cc1cccc(OCCNc2cc(N3CCN(C)CC3)ccc2[N+](=O)[O-])c1,0%,-9.6%,?,16%,4%,-6%,?,-8%
Nc1ccc2c(c1)C(=O)c1cc([N+](=O)[O-])ccc1-2,/,/,2%,-17%,/,/,27%,-9%
Cc1[nH]c2ccccc2c1C(=O)C(C)Sc1nnc(C2CC2)o1 (centres undefined),/,/,5%,-1%,-6%,/,-5%,16%
CCS(=O)(=O)N1CCC(N2CCC(C)CC2)CC1,3%,/,/,-4%,3%,/,/,-2%
C/C(=N\NC(=O)c1ccc2ccccc2c1)c1cccnc1,3%,/,?,12%,-9%,/,1%[46.1 µM],-2%
Cc1ccc(C(=O)NCCCc2ccccc2)c(Cl)c1,-15%,/,-30%[46.1 µM],24%,2%,/,-7%[46.1 µM],7%
CCOc1cc(N2CCOCC2)c(OCC)cc1NC(=O)COC(=O)c1cccc2ccccc12,-1%,-5.3%,1%,-27%,3%,?,?,0%
Cc1c(C=O)c2ccccc2n1CC(=O)N1CCc2ccccc2C1,-9%,-8.6%,-12%,0%,7%,-14%,-6%,5%
CC(C)CCNC(=O)C(c1ccco1)N(Cc1ccccc1)C(=O)c1snc(C(N)=O)c1N (centres undefined),-1%,-8.2%,-22%,17%,1%,11%,31%[14.3 µM],-6%
CCCNC(=O)C1Cc2cc(S(=O)(=O)N3CCCCCC3)ccc2N1C(C)=O (centres undefined),/,0.4%,/,-15%,/,1%,-14%[46.1 µM],/
O=[N+]([O-])c1cc(Cl)ccc1Nc1ccccc1,8%,/,/,-3%,1%,/,/,12%

# Reformatted tab-delimited: part of the list above
Molecule	NS1 inh	Cruzain Triton	Marburg entry inh	2A StopGo	SARS PLP yeast	Cruzain noTriton	Lassa entry inh	RE007 growth inh
Cc1cccc(OCCNc2cc(N3CCN(C)CC3)ccc2[N+](=O)[O-])c1	0%	-9.6%	?	16%	4%	-6%	?	-8%
Cc1ccc(C(=O)N2CC(C)CC(C)C2)cc1NC1=NC2CS(=O)(=O)CC2S1 (centres undefined)	19%	/	/	-20%	-1%	/	/	9%
